Screens deposited in PubChem BioAssay by ICCB-Longwood Screening Facility, Harvard Medical School.
Sa growth 42C = S. aureus growth inhibition. S. aureus RN4220 growth, OD600, 20 h, 42 °C; active compounds read low. relative growth, % (concentration not given with the values). 170,000 compounds, 0.53% hits;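 active = growth at 42 °C up to 50% and 20 or more points under that at 30 °C, or under 10% at both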;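 note: 300 nL library stock went into each well; scaled to the means of positive and negative controls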
GIV-Gai inh = GIV-Galpha-i interaction inhibition; P08753; Galpha-i3/FITC-GIV peptide fluorescence polarization, 90 min; active compounds read low; scaled: aluminum fluoride 0%, vehicle 100%; percent of control (FP), % (concentration not given with the values); 210,000 compounds, 0.42% hits;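 active = replicate mean at 85% of control or lower, very high polarization wells dropped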;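 note: wells of about 15 µL received 100 nL stock; the first replicate is given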
Target sequence (P08753 whole entry, looked up): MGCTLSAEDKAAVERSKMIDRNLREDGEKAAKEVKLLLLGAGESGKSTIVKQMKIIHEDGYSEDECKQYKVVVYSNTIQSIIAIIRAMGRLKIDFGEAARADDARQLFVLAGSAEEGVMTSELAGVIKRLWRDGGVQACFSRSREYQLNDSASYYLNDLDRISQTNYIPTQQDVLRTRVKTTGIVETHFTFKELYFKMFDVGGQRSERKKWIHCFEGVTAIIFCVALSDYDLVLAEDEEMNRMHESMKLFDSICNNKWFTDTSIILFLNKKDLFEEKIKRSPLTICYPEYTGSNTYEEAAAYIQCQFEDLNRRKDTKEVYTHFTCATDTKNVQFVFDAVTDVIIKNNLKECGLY
HCMV UL50-53 inh = cytomegalovirus nuclear egress complex inhibition; HTRF UL50-UL53 interaction, normalized percent inhibition; inhibition, % (concentration not given with the values); 190,000 compounds, 0.15% hits; AID 1918969;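 active = both replicates at 50% or more, plus weaker picks with an unusually low signal ratio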;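 note: stock transfer was 100 nL into about 20 µL; 0% = negative control wells and 100% = wells with untagged competitor protein; inactives centre near -12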
Sa growth 42C second temp = second read-out of Sa growth 42C, no call of its own (marks repeat the call); relative growth, %; measured here: growth at 30 °C;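 optical density after 20 h as mean of two plates; 100% = untreated growth and lower means inhibition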
Numbers without * were called inactive; . = no result given; & = joins results of further samples. Random draw from the library (roughly 0.83% active in at least one column).

SMILES	Sa growth 42C	Sa growth 42C second temp	GIV-Gai inh	HCMV UL50-53 inh
CCOC(=O)c1c(NC(=O)COc2ccccc2Br)sc2c1CCCCC2	90	80	104	-57
C=CCN(CC=C)S(=O)(=O)c1ccc2nc(NC(=O)C(C)C)sc2c1	98	88	107	5
COC(=O)CSc1nnc(CNC(=O)c2ccccc2OC)n1C	113	84	103	.
Cc1cccc(NC(=O)c2cc(S(=O)(=O)N3CCc4ccccc43)ccc2F)c1C	116	90	102	.
Cc1cc(C)cc(NC(=O)c2ncn(-c3ccccc3)n2)c1	101	91	105	-8
CCc1ccc(NC(=O)N2CCSc3ccccc32)cc1	94	85	108	-28
O=C(CSC1CCCCC1)c1ccccc1F	102	101	.	11
CCOC(=O)c1ccc(NC(=O)c2c(NCc3cccs3)sc3c2CCCCC3)cc1	91	70	153	.
COc1ccc2nc(NNC(=O)C3COc4ccccc4O3)sc2c1 (stereo not given)	91	92	97	-10
CCNc1nc(Oc2ccc(=O)n(-c3ccccc3)n2)nc(N(C)C)n1	103	87	108	-14
COc1ccccc1OCCN1CCOCC1	98	112	101	2
Cc1occc(=O)c1O	84	86	.	-67
COc1cccc(CN(C)C(=O)c2cc(C)oc2C)c1OC	92	93	.	-25
Cc1ccc(C(=O)OC(C)C(=O)NC2CCCC2)c(C)c1 (stereo not given)	88	90	.	-5
Fc1ccc(OCc2nnc3sc(COc4ccc(Cl)cc4)nn23)cc1	.	.	105	9
CC1(C(=O)NC2CCCC2)Cn2c(c(-n3cccc3)c3ccccc32)C(=O)N1CCC1=CCCCC1 (stereo not given)	.	.	98	-10
O=C(OCc1ncc(-c2ccccc2)o1)c1cc(=O)[nH]c2ccccc12	103	102	.	3
Cc1ccc(Cc2cnc(N)s2)o1	132	90	.	-4
O=C(CCN1CCc2ccccc2C1)Nc1ccc2c(c1)CCC2	98	91	.	-17
CCOC(=O)c1sc(C)c2c(=O)[nH]c(-c3ccc(SC)cc3)nc12	88	76	100	-28
Cc1ccc(Sc2sc(=O)n(C)c2S(=O)(=O)c2ccc(C)cc2)cc1	101	90	105	.
NC(=O)c1sc(-c2ccsc2)cc1NC(=O)C(F)(F)F	97	35	97	-46
Clc1ccc(-c2nnnn2Cc2ccccc2)cc1	120	99	99	-19
CCOc1ccc(CCNC(=O)c2ccc3nc(N4CCC(C)CC4)sc3c2)cc1OCC	97	82	100	-26
CCCCc1c(O)c2cccc3c4ccccc4n(c1=O)c23	117	80	96	-34

Next section
SMILES	Sa growth 42C	Sa growth 42C second temp	GIV-Gai inh	HCMV UL50-53 inh
Cc1cccc(N2CCN(S(=O)(=O)c3cn(C)c(C)n3)CC2)c1C	102	99	98	.
S=c1[nH]nc(-c2ccncc2)n1C1CCCC1	79	85	101	.
CN(C)c1ccc(NC(=S)N=P(c2ccncc2)(N(C)C)N(C)C)cc1	93	97	.	-7
O=C(/C=C/C(=O)c1ccccc1)c1ccccc1	-0.4*	0.2*	.	-33
O=C(Nc1ccc(F)cc1)C1CC(=O)N(CCc2ccccc2)C1 (stereo not given)	89	94	.	-8
COc1ccccc1C(=O)Nc1ccc(NC(=O)c2cccs2)cc1	104	96	104	-13
O=C(NCC1CCCN1S(=O)(=O)c1ccccc1)Nc1ccccc1 (stereo not given)	104	81	102	-26
OCc1ccc(-c2ccc(Cl)cc2)o1	93	76	98	-15
COc1c(Cl)cccc1-c1cn2ccccc2n1	96	60	100	-6
CCOC(=O)C1CCN(c2nc3ccccc3nc2S(=O)(=O)c2ccc(C)cc2)CC1	.	.	104	-28
CC(=O)Nc1ccc(NC(=O)CC(C)n2ccc(C)n2)cc1 (stereo not given)	90	91	99	.
Cn1c(=O)cc(SCC(=O)Nc2cccnc2)c2ccccc21	88	71	101	.
CC1N=C2c3ccccc3N=C(SC(C)C(=O)Nc3ccccc3)N2C1=O (stereo not given)	.	.	104	-12
CC(C)N1C(=O)C(O)(c2c[nH]c3ccccc23)c2ccccc21 (stereo not given)	92	100	114	9
N#Cc1ccsc1NC(=O)CSC1CCCCC1	.	.	108	-4
O=C(Cn1ncn2c(cc3ccccc32)c1=O)NCCc1ccccc1	102	102	104	7
COc1ccc(C(=O)Oc2ccc(C)cc2/C=C2\Sc3ccccc3C2=O)cc1	.	.	108	6
Cc1nn(-c2ccccc2)c2c1C(c1ccc(O)c(O)c1)C1=C(CC(C)(C)CC1=O)N2 (stereo not given)	.	.	99	-9
CC1=CSC2=NC(=O)/C(=C\c3ccc(SCc4ccc(Cl)cc4)o3)C(=N)N12	102	101	146	-5
CCOC(=O)CNC(=O)c1cc2c(=O)n3cccc(C)c3nc2n1C	81	85	106	-12
CCOc1ccc(C2C(=O)N(C3CCCCC3)CC(=O)N2CCC2=CCCCC2)cc1OC (stereo not given)	87	92	108	.
Oc1ccc(-c2cnc3ccncc3n2)cc1	100	88	.	-49
N#CC1CCN(CCS(=O)(=O)c2ccc(Cl)cc2)CC1	88	81	103	-17
CCc1ccc(NS(=O)(=O)c2ccc3[nH]cc(C(=O)NCc4ccc(C)cc4)c(=O)c3c2)cc1	94	90	99	-10
Cc1[nH]n(-c2ccccc2)c(=O)c1/C=N/NC(=O)c1ccccc1	85	62	99	-25

Brought forward from above: 2 entries, then new ones.
SMILES	Sa growth 42C	Sa growth 42C second temp	GIV-Gai inh	HCMV UL50-53 inh
CCc1ccc(NS(=O)(=O)c2ccc3[nH]cc(C(=O)NCc4ccc(C)cc4)c(=O)c3c2)cc1	94	90	99	-10
Cc1[nH]n(-c2ccccc2)c(=O)c1/C=N/NC(=O)c1ccccc1	85	62	99	-25
CCN(C(=O)c1cccc2c1SCCC2=O)c1ccccc1F	107	78	106	-15
CCN1CCN(c2ncc3c(n2)CCN(Cc2ccccc2C)C3)CC1	99	95	103	.
O=C(CN(c1cccc([N+](=O)[O-])c1)S(=O)(=O)c1ccccc1)N1CCN(Cc2ccccc2)CC1	.	.	100	-17
CC(C)(C)c1ccc(C(=O)NCc2nnc(SCC(=O)Nc3ccc4c(c3)OCO4)o2)cc1	96	82	101	-16
Cc1ccc(N2CC(C(=O)NC3CC3)CC2=O)cc1Cl (stereo not given)	102	79	102	-12
O=C(NC1CC1)c1ccc(Cn2c(SCc3cccc(F)c3)nc3cccnc32)cc1	102	96	112	.
Cn1nc(-c2ccccc2F)c2cc(C(=O)NCc3cccc(Cl)c3)sc21	94	82	106	-33
CCCn1c(SC(C(=O)c2ccccc2)c2ccccc2)n[nH]c1=O (stereo not given)	93	90	.	-36
CCSc1nnc2c(n1)OC(C1CC=C(C)CC1C)Nc1ccccc1-2 (stereo not given)	.	.	101	-14
Cc1nc(C(F)(F)F)ccc1-c1nnc(SCc2ccc(OC(F)(F)F)cc2)o1	95	96	104	-9
CC(=O)Nc1ccc(-c2nn3c(C)nnc3s2)cc1	98	84	103	-8
Cc1cccc(NC(=O)Cn2nc3c(Sc4ccccc4)nc4ccccc4n3c2=O)c1	.	.	112	-23
CC1CCN(S(=O)(=O)c2ccc(CN3C(=O)c4cccnc4C3=O)cc2)CC1	108	91	103	-39
O=C(CCCSc1nnc(Nc2ccccc2F)s1)N1CCOCC1	90	95	.	-14
O=C(CN1CCOCC1)NN1CC(=O)N(c2ccccc2)CC1=O	94	89	102	-18
COc1cccc(NCCC#N)c1	108	95	.	4
Clc1ccc2c(c1)CCc1cccnc1C2=C1CCNCC1	96&92&95	82&83&91	99	-6&-42&-34&-71
CC(C)N(C(=O)COc1ncnc2ccccc12)c1ccccc1	104	82	.	-37
COCCn1nnc2cc(S(=O)(=O)N3CCCC(C(=O)NCCC4=CCCCC4)C3)ccc21 (stereo not given)	.	.	106	-8
CCOc1ccc(-n2cc(-c3ccccc3)c3c(NC(C)C)ncnc32)cc1	99	92	105	.
Cc1nc(N2CCCCC2)c2c(C)c(C(=O)O)sc2n1	.	.	102	-10
CCCNC(=S)N1CCN(S(=O)(=O)c2ccc(OC)c(OC)c2)CC1	116	104	106	-1
COc1ccc(NC(=O)c2ncn(-c3ccccc3)n2)cc1Cl	112	88	106&99	-12&-12
CC(Sc1ccccc1)C(=O)N/N=C/c1cccnc1 (stereo not given)	89	93	110	-13
CC1CCCC(NC(=O)c2ccc3c(SCC(=O)O)c4c(nc3c2)CCC4)C1C (stereo not given)	114	95	100	.

19 neighbouring records out of the list so far, for reference:
SMILES	Sa growth 42C	Sa growth 42C second temp	GIV-Gai inh	HCMV UL50-53 inh
Cn1nc(-c2ccccc2F)c2cc(C(=O)NCc3cccc(Cl)c3)sc21	94	82	106	-33
CCCn1c(SC(C(=O)c2ccccc2)c2ccccc2)n[nH]c1=O (stereo not given)	93	90	.	-36
CCSc1nnc2c(n1)OC(C1CC=C(C)CC1C)Nc1ccccc1-2 (stereo not given)	.	.	101	-14
Cc1nc(C(F)(F)F)ccc1-c1nnc(SCc2ccc(OC(F)(F)F)cc2)o1	95	96	104	-9
CC(=O)Nc1ccc(-c2nn3c(C)nnc3s2)cc1	98	84	103	-8
Cc1cccc(NC(=O)Cn2nc3c(Sc4ccccc4)nc4ccccc4n3c2=O)c1	.	.	112	-23
CC1CCN(S(=O)(=O)c2ccc(CN3C(=O)c4cccnc4C3=O)cc2)CC1	108	91	103	-39
O=C(CCCSc1nnc(Nc2ccccc2F)s1)N1CCOCC1	90	95	.	-14
O=C(CN1CCOCC1)NN1CC(=O)N(c2ccccc2)CC1=O	94	89	102	-18
COc1cccc(NCCC#N)c1	108	95	.	4
Clc1ccc2c(c1)CCc1cccnc1C2=C1CCNCC1	96&92&95	82&83&91	99	-6&-42&-34&-71
CC(C)N(C(=O)COc1ncnc2ccccc12)c1ccccc1	104	82	.	-37
COCCn1nnc2cc(S(=O)(=O)N3CCCC(C(=O)NCCC4=CCCCC4)C3)ccc21 (stereo not given)	.	.	106	-8
CCOc1ccc(-n2cc(-c3ccccc3)c3c(NC(C)C)ncnc32)cc1	99	92	105	.
Cc1nc(N2CCCCC2)c2c(C)c(C(=O)O)sc2n1	.	.	102	-10
CCCNC(=S)N1CCN(S(=O)(=O)c2ccc(OC)c(OC)c2)CC1	116	104	106	-1
COc1ccc(NC(=O)c2ncn(-c3ccccc3)n2)cc1Cl	112	88	106&99	-12&-12
CC(Sc1ccccc1)C(=O)N/N=C/c1cccnc1 (stereo not given)	89	93	110	-13
CC1CCCC(NC(=O)c2ccc3c(SCC(=O)O)c4c(nc3c2)CCC4)C1C (stereo not given)	114	95	100	.

Other compounds.
SMILES	Sa growth 42C	Sa growth 42C second temp	GIV-Gai inh	HCMV UL50-53 inh
COC(=O)c1ccc(NS(=O)(=O)c2ccc3[nH]c4c(c3c2)CCCC4)cc1	84	60	114	.
COc1ccc2cc3cc(C(=O)Nc4cc(C)c(Cl)cc4OC)oc3nc2c1	102	91	103	-21
Cc1ccc(C)c(N2CCN(C(=O)c3cc(S(=O)(=O)N4CCC(C)CC4)cn3C)CC2)c1	85	93	99	.
CCC1COC(c2cccn2Cc2ccccc2Br)=N1 (stereo not given)	.	.	102	-6
COC(=O)c1sccc1S(=O)(=O)N1CCN(c2ccccc2)CC1	86	81	97	.
COc1ccc(-c2nnc(Nc3ccc(OCC(N)=O)cc3)c3ccccc23)cc1	104	95	108	-48
O=C(Cn1c(COc2ccc(Cl)cc2)nc2ccccc21)NCc1ccco1	102	97	.	-13
CCOC(=O)N1CCN(C(=O)CN(c2cc(Cl)ccc2OC)S(=O)(=O)c2ccc(C)cc2)CC1	.	.	103	-7
O=C(CSc1nc2c([nH]c3ccccc32)c(=O)n1-c1ccccc1)Nc1ccc2c(c1)OCCO2	141	91	106&104	.
C=CCCN(C(C)C)S(=O)(=O)c1ccc(C)cc1	87	94	95	0
O=C(Nc1nnc(C2CC2)o1)c1ccc(S(=O)(=O)N2CCCCC2)cc1	12	8	104	-34
CN1C/C(=C\c2ccc(O)cc2)C(=O)/C(=C/c2ccc(O)cc2)C1	113	84	.	-40
CC(C)(C)P(=NC(=S)Nc1ccccc1)(N1CCOCC1)N1CCOCC1	87	93	.	-7
Cc1cc(S(=O)(=O)NCC(c2ccc(N(C)C)cc2)N2CCOCC2)ccc1F (stereo not given)	104	96	96	.
CCOc1ccc(C2=NC(c3ccc(OC)cc3)=Nc3ccc(Cl)cc3N2)cc1	89	88	98&106	-41&21
O=C(CSc1nnnn1Cc1ccccc1)c1ccccc1	85	56	98	-1
COc1ccc2nc(NC(=O)Cn3ncc4c(=O)oc5ccccc5c43)sc2c1	.	.	95	-3
OCCSc1nnc(-c2cc3ccccc3o2)n1-c1ccccc1	110	92	104	-43
CCOC(=O)C(C)Sc1nc(-c2ccc(OC)cc2)nc2c1c(=O)n(C)c(=O)n2C (stereo not given)	97	94	97	.
CC(=O)Nc1ccc(S(=O)(=O)N2CCN(C/C=C/c3ccccc3)CC2)cc1	112	99	97	-5
CCOc1ccccc1CNC(=O)c1cccn1-c1nnc(N2CCCC2)s1	81	90	100	.
CC1=CCC2(CC1)COC(C)(CC(=O)NN)OC2 (stereo not given)	85	100	.	21
COc1ccc(C2C3(C#N)C(N)=NC4(OCCO4)C23C#N)cc1OC (stereo not given)	96	76	104	-23
